Screening data as filed in PubChem BioAssay.
E coli growth: blocks Escherichia coli growth | OD600, 23 h; hits give low values | 0.21% of 330,000 active | OD600 absorbance (test concentration not listed);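 active = OD600 absorbance below the run mean of sample wells minus 3.6 SD, in any replicate, cut at about 0.56 in these data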;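 note: stock transfer was 300 nL into about 60 µL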
* hit, by the source's call; & = joins results of further samples. Some of the compounds tested; rates above refer to the full screens.

E coli growth	Compound
0.7	CCOC(=O)C1C2COc3ccccc3C2N2C(=O)c3cc(Cl)ccc3NC(=O)[C@@]12C (stereo partly specified)
0.67	CCOc1cc(C=NNC(=O)CCn2nc(C)cc2C)ccc1O
0.67	CC=CC=CC(=O)N1CC2(CC(c3cccc(NC(=O)CC(c4ccccc4)c4ccccc4)c3)=NO2)CC1C(N)=O (stereo unspecified)
0.72	COc1cc([N+](=O)[O-])ccc1-c1ccc(C=NNC(=O)c2ccccc2O)o1
0.6	CC(Cc1ccccc1)=NNC(=O)CNC(=O)c1ccccc1F
0.68	COc1ccc(C2CC(=O)C=C(c3cccc(Cl)c3O)C2)cc1OC (stereo unspecified)
0.64	C/C(C=NNC(=O)c1cccs1)=C/c1ccccc1
0.71	CCc1n[nH]c(=S)n1N=Cc1c(C)nn(-c2ccccc2)c1Cl
0.68	Cn1c(NN=Cc2cccc(O)c2)cc(=O)n(C)c1=O
0.69	CC(C)(NO)C(=NO)c1ccc(Cl)cc1
0.7	CCC(CC)C1=NN2C(=N)C(=Cc3cc(C)n(-c4cccc(C)c4)c3C)C(=O)N=C2S1
0.65	CC(C)(C)S(=O)(=O)C(C#N)=NNc1ccc(C#N)cc1
0.61	CCCCCC(=O)Nc1cccc(C2=NOC3(C2)CC(C(N)=O)N(C(=O)c2ccc(Cl)cc2)C3)c1 (stereo unspecified)
0.7	COC(C(=O)NN=C(C)CC(=O)Nc1ccc(N(C)C)cc1)c1ccccc1 (stereo unspecified)
0.65	CC(=O)C1=C(C)N(Cc2ccccc2)C(=O)NC1c1ccco1 (stereo unspecified)
0.71	C=C1C(O)C(CC(C)C)N(Cc2ccccc2Br)S1(=O)=O (stereo unspecified)
0.73	O=[N+]([O-])c1ccc(Cl)c(S(=O)(=O)N=C(c2ccccc2)N2CCOCC2)c1
0.65	O=C1C=C(c2ccc(Oc3ccccc3)cc2)CC(c2ccc(F)cc2)C1 (stereo unspecified)
0.67	NC(Cc1ccc(O)cc1)c1nnc(C(CCC(=O)O)NC(=O)C2CCNCC2)o1 (stereo unspecified)
0.68&0.67	O=C(C1=CC(C2CC2)CC(OCCCCO)O1)N1CCN(Cc2ccc3c(c2)OCO3)CC1 (stereo unspecified)
0.63	O=C(CNC(=O)c1cccc(F)c1)NN=Cc1cccs1
0.69	CN1C(=O)C2C(C3CC3)N3C(=O)CN(Cc4ccc(-c5ccccc5)cc4)C(=O)[C@@]3(C)C2C1=O (stereo partly specified)
0.72	CC1CN(C(C)CO)C(=O)c2cccc(NC(=O)c3cnccn3)c2OC1CN(C)S(=O)(=O)c1ccc(F)cc1 (stereo unspecified)
0.67	O=C(C[n+]1cccc(C=NO)c1)N(Cc1ccccc1)Cc1ccccc1
0.7	Cn1cc(C(=O)NN=C/C(Br)=C\c2ccccc2)ccc1=O
0.71	NC(Cc1ccccc1)C(=O)N1CCOCC1 (stereo unspecified)
0.7	CC(=NNC(=O)C(N)=O)c1cccc([N+](=O)[O-])c1
0.73	CCOC(=O)C1C2COc3ccc(Cl)cc3C2N2C(=O)CN(Cc3ccc(C)cc3)C(=O)[C@@]12C (stereo partly specified)
0.68	CCCC(NC(=O)C(C)NC(=O)CON=C1C=C2CCC3C4CCC(C(C)=O)[C@@]4(C)CCC3[C@@]2(C)CC1)C(=O)O (stereo partly specified)
0.78	Cc1cccc2c1OCCC2=NNC(=O)COc1ccccc1Cl
0.66	COc1ccc(OC)c(C=NNC(=O)c2cc[n+](CC(=O)c3ccccc3)cc2)c1
0.63	COc1ccc(C(C)=NNC(=O)CNC(=O)CCc2ccccc2)c(OC)c1
0.69	COc1ccc(CC(=O)Nc2cccc(C(C)=NNC(=O)c3cccc([N+](=O)[O-])c3)c2)cc1
0.68	Nc1nonc1-n1nnc(C(=O)NN=Cc2c(Cl)cccc2Cl)c1CN1CCOCC1
0.66	COc1ccc(CC(C)=NNC(=O)c2c[nH]c3ccccc23)cc1OC
0.68	C=CCN1c2ccccc2[C@]23CC(C(=O)OC)N(C(=O)c4ccc(Br)cc4)C2=NC(C(=O)OC)=C(C(=O)OC)C13 (stereo partly specified)
0.7	CCCC=C1CCCOC(C(=O)NCc2ccccn2)(C(F)(F)F)C1 (stereo unspecified)
0.65	C=CCNC(=S)N=c1sccn1C
0.64	O=C(Cn1cncn1)NN=Cc1ccccc1Cl
0.67	O=[N+]([O-])c1ccccc1C=Nn1c(C2CCCCC2)n[nH]c1=S
0.66	COc1cc(C=NNc2ccc(Cl)c(C(=O)O)c2)ccc1OCC(=O)N1C(C)CCCC1C (stereo unspecified)
0.67	COC(=O)C1=C(C(=O)OC)C2N(C)c3ccccc3[C@@]23CC(C(=O)OC)N(C(C)=O)C3=N1 (stereo partly specified)
0.66	Cc1cc(C)c[n+](-c2[nH]c(=O)sc2C=NNC([S-])=Nc2ccccc2)c1
0.57	O=C(NN=Cc1ccsc1)c1ccc2ccccc2n1
0.64	CCN(N=Cc1ccc(Cl)cc1)c1cc(=O)n(C)c(=O)[nH]1
0.68	CC1=CC(=NS(=O)(=O)c2ccccc2)C(C(C)C)=CC1=O
0.68	O=C(O)COc1ccccc1/C=C1\SC(=S)N(N=Cc2ccccc2O)C1=O
0.69	Cc1ccc(NCC(=O)NN=Cc2ccc[nH]2)cc1
0.66	Cc1ccccc1NCC(=O)NN=C/C(Br)=C/c1ccccc1
0.68	Cc1cc(C=NNC(=O)CC(=O)NC2CCCCC2)c(C)n1-c1cccc(Cl)c1Cl

Reprinted at random: seven compounds from above
E coli growth	Compound
0.68	Cc1cc(C=NNC(=O)CC(=O)NC2CCCCC2)c(C)n1-c1cccc(Cl)c1Cl
0.57	O=C(NN=Cc1ccsc1)c1ccc2ccccc2n1
0.64	CCN(N=Cc1ccc(Cl)cc1)c1cc(=O)n(C)c(=O)[nH]1
0.66	Cc1ccccc1NCC(=O)NN=C/C(Br)=C/c1ccccc1
0.69	Cc1ccc(NCC(=O)NN=Cc2ccc[nH]2)cc1
0.68	CC1=CC(=NS(=O)(=O)c2ccccc2)C(C(C)C)=CC1=O
0.67	COC(=O)C1=C(C(=O)OC)C2N(C)c3ccccc3[C@@]23CC(C(=O)OC)N(C(C)=O)C3=N1 (stereo partly specified)

New compounds follow:
E coli growth	Compound
0.71	Cn1cccc1CC(=O)NN=Cc1ccccc1
0.68	CCN1C(=O)C2C(c3ccc(C)cc3)N3C(=O)N(c4cccc(Cl)c4)C(=O)[C@@]3(C)C2C1=O (stereo partly specified)
0.65	O=C(CCCC(=O)Nc1ccccc1Br)NN=Cc1c(F)cccc1Cl
0.61	Fc1ccc(CN2CCC3C=CCc4cccc(c43)C2)cc1 (stereo unspecified)
0.73	CC(=O)c1ccc(N2Cc3ccccc3C2=NC(=O)Nc2ccccc2)cc1
0.69	Cc1ccc(COc2ccc(C=NNC(=O)c3ccc(CN4CCOCC4)cc3)cc2)cc1
0.67	Cc1nc2c(C)cccc2cc1C(=O)NN=Cc1cccc([N+](=O)[O-])c1
0.65	CC(C)(O)C=CC(=O)[C@](C)(O)C1C(O)C[C@@]2(C)C3CC=C4C(C=C(OC5OC(CO)C(O)C(O)C5O)C(=O)C4(C)C)[C@]3(C)C(=O)C[C@]12C (stereo partly specified)
0.73	CC(CC(=O)N(C(C)C)C(C)C)=NNC(=O)COc1ccc(Br)cc1Br
0.54	C(=NNc1nc2ccccc2[nH]1)c1ccc2c(c1)OCCO2
0.68	Cc1ccc(C=NNC(=O)c2ccoc2C)s1
0.72	Cc1ccc(NC(=O)CN2C(=O)SC(=Cc3cc(C)n(-c4cccc(C(=O)O)c4)c3C)C2=O)cc1
0.75	Cc1cc(N2CCOCC2)ccc1C=C1NC(=O)N(CC(=O)Nc2ccc(F)cc2)C1=O
0.69	COc1ccccc1NC(=O)C(=O)NN=C(C)CC(=O)Nc1ccccc1C(F)(F)F
0.68	Cc1ccc(C=NNC(=O)Cc2cccn2C)cc1
0.7	O=S(=O)(N=C(Nc1ccccn1)c1ccccc1)c1ccc(Cl)cc1
0.71	CC(C)CC1NC(=O)C(CO)NC(=O)c2cc([N+](=O)[O-])cc(I)c2OCCC(C(N)=O)NC1=O (stereo unspecified)
0.64	NC(=O)Cn1cc(C=NNC(=O)c2ccc(Cn3cc(Cl)cn3)o2)c(-c2ccccc2)n1
0.67	COc1ccc(C=CCN2CCCC(CCC(=O)NCc3ccc(F)c(F)c3)C2)cc1 (stereo unspecified)
0.63	Cc1cc(C(=O)NN=Cc2ccc3c(c2)OCO3)c(C)o1
0.67	CC(=NNC(=O)c1c(Br)c(C)nn1C)c1cccc(NC(=O)c2ccccc2C)c1
0.63	COc1cc(C=NNc2nc3ccccc3[nH]2)cc(OC)c1O
0.66	COc1ccc(O)c(C=NNS(=O)(=O)c2ccc(C)cc2)c1
0.66	Cn1c(=NNC(=O)c2ccccc2Cl)sc2ccccc21
0.7	CC(=NNC(=O)c1cc(-c2ccncc2)nc2ccccc12)c1ccc(OC(F)F)cc1
0.71	CCN(CC)c1ccc(C=NNC(=O)C(O)c2ccccc2)cc1 (stereo unspecified)
0.65&0.7&0.68&0.69	OCCC1CC(O)C(O)[C@]2(OCc3ccccc32)O1 (stereo partly specified)
0.69	O=C(O)COc1ccccc1C=NNC(=O)CSc1nc2ccccc2n1Cc1ccccc1Cl
0.72	CNC(=O)C(=O)NN=Cc1cccnc1
0.71	O=C(O)COc1ccc(C=NO)cc1Br

A second format for 7 compounds above:
mol	E coli growth
Cn1c(=NNC(=O)c2ccccc2Cl)sc2ccccc21	0.66
CC(=NNC(=O)c1cc(-c2ccncc2)nc2ccccc12)c1ccc(OC(F)F)cc1	0.7
CCN(CC)c1ccc(C=NNC(=O)C(O)c2ccccc2)cc1 (stereo unspecified)	0.71
OCCC1CC(O)C(O)[C@]2(OCc3ccccc32)O1 (stereo partly specified)	0.65&0.7&0.68&0.69
O=C(O)COc1ccccc1C=NNC(=O)CSc1nc2ccccc2n1Cc1ccccc1Cl	0.69
CNC(=O)C(=O)NN=Cc1cccnc1	0.72
O=C(O)COc1ccc(C=NO)cc1Br	0.71

Going on with the list:
E coli growth	Compound
0.66	CC(C)CC(NC(=O)c1[nH]cnc1C(=O)NC(C)C(=O)OCc1ccccc1)C(=O)OCc1ccccc1 (stereo unspecified)
0.62	COc1cc2cc(C(=O)NN=Cc3ccc(F)cc3)[nH]c2cc1OC
0.65	Cc1c(C(=O)NN=Cc2cccs2)nc2ccccn12
0.17*	COc1cccc(C=NNc2ncnc(Cl)c2N)c1O
0.69	CC(=NNC(=O)c1ccoc1C)c1cccnc1
0.63	NCCCCC1NC(=O)c2cc([N+](=O)[O-])cc(F)c2NCCCCC(C(N)=O)NC(=O)CNC1=O (stereo unspecified)
0.7	COc1ccc(NC(=O)CC2SC(=Nc3nccs3)N(C)C2=O)cc1 (stereo unspecified)
0.72	COc1ccc(C=NNC(=O)c2[nH]nc3c2CCc2ccccc2-3)cc1OC
0.63	O=C1C2C(C(=O)N1N=Cc1cc([N+](=O)[O-])c(O)cc1O)C1C=CC2C12CC2 (stereo unspecified)
0.72	Cc1cc(C=Nn2cnnc2)c(O)c([N+](=O)[O-])c1
0.68	COc1ccc(CC(=O)NN=C(C)c2ccccn2)cc1
0.65	S=c1[nH]nc(-c2ccccc2)n1N=Cc1cccs1
0.74	CC(C)(C)c1ccc(C2CC2C(=O)NN=Cc2cc3ccccc3nc2Cl)cc1 (stereo unspecified)
0.68	O=C(NN=Cc1ccncc1)c1ccc(NC(=O)c2ccc(Cl)cc2)cc1
0.67&0.69&0.71&0.68&0.7	CC(C)(C)OC(=O)CC1CC=CCC(CC(=O)NCCO)C(=O)N2CCCC2COC1=O (stereo unspecified)
0.69	C#CCOCCOCCOCCNc1nc(N2CCN(C(=O)C(CCC(=O)O)n3cc(C(N)CC(C)C)nn3)CC2)nc(N2CCN(C(=O)C(C(C)CC)n3cc(C(N)CC(C)C)nn3)CC2)n1 (stereo unspecified)
0.64	CCCCc1ccc(C(C)=NNc2cc(N3CCOCC3)nc(C)n2)cc1
0.65	CC(=O)ON=C(N)c1cnn2c(C(F)(F)F)cc(C(F)(F)F)nc12
0.73	CC(=NN=c1sc2ccccc2n1C)c1ccccn1
0.67	O=S1CCC(=NO)c2ccccc21 (stereo unspecified)
0.69	CCC(=O)N(C)CCc1cc2c(c(OC)c1C=NNC(=O)c1ccccc1O)OCO2
0.63	O=C(O)c1ccc(NN=Cc2ccc(-c3ccccc3)cc2)cc1
0.73	O=C(CSCC(=O)Nc1ccccc1)NN=Cc1c(O)ccc2ccccc12
0.65	COc1c(Br)cc(Br)cc1C=NNC(=O)c1cccnc1
0.68	CCOC(=O)c1c(N=CC2C(=O)CC(C)(C)CC2=O)sc2c1CCCC2
0.67	CCCOc1ccc(C=Nn2nnnc2N)cc1OC
0.64	C=CCOc1ccc(C=NNC(=O)C(=O)Nc2ccccn2)cc1OC
0.71	CCC1=C(OC(=O)N(CC)CC)N2C(=O)OC(=NCc3ccccc3)[C@]2(C)C2C1=CCC1C(=O)N(CC(=O)OC)C(=O)C12 (stereo partly specified)
0.67	Cc1[nH]c2ccccc2c1C=NNC(=O)Cc1cccs1
0.47*	Cc1ccc(S(=O)(=O)NN=Cc2ccc([N+](=O)[O-])o2)cc1
0.68	C(=NNc1ccccc1)c1ccc(N2CCOCC2)cc1
0.66	CC(=NNc1nc2ccc(Cl)cc2o1)c1ccccc1
